UUG fidelity – modulators of yeast start codon fidelity, primary screen, whole organism, S. cerevisiae, single point, plate reader; activity score, % at 18.7 µM; hit rate 0.13% among 350,000; S. cerevisiae UUG-firefly luciferase reporter, luminescence/redox ratio; AID 602363, 2012;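 active = replicate mean at a twofold rise or more, about +100% in these data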;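 note: firefly luciferase made from a UUG start codon reports start codon fidelity; reporter light over untreated wells divided by growth signal over untreated wells; some hits fall short of that in this replicate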
eIF4H inh – human eIF4H binding inhibitors, primary screen, translation initiation inhibitor project, biochemical, uHTS, fluorescence polarization; eIF4H fluorescence polarization binding assay; Eukaryotic translation initiation factor 4H (Homo sapiens), Q15056; hit rate 0.94% among 290,000; inhibition, % at 35 µM;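 active = 50% or more with normal probe brightness, or confirmed in later tests; inconclusive = above 50% with abnormal brightness, or retests that disagree; inactive = below 50% or failed in later tests; about a fifth of its hits are not listed in these tables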;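 note: calls also rest on retests at 20 µM and on dose response follow-up; 0% = protein and probe with vehicle and 100% = probe without protein; strong numbers were not always called active; many hits fall short of the cut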
Env fusion inh – inhibitors of HIV-1 Env-driven cell-cell fusion, primary screen, HeLa-JRFL effector, CEM21 target cells, luciferase | inhibition, % at 12.3 µM | hit rate 1.1% among 360,000 | AID 651610, 2012;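 active = mean replicate inhibition score of at least 50 and every replicate individually at or above 50; inconclusive = only one of the two criteria met; inactive = mean below 50 and not all replicates reaching 50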;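 note: 0% = plate neutral controls and 100% = maraviroc near 300 nM; one replicate is shown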
PABP FP inh – PABP poly(A) RNA binding inhibitors, primary screen, biochemical, fluorescence polarization, uHTS. Polyadenylate-binding protein 1 (Homo sapiens), P11940. inhibition, % at 35 µM. hit rate 1% among 290,000;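 active = 50% or more with normal probe brightness, or confirmed in later tests; inconclusive = above 50% with abnormal brightness, or retests that disagree; inactive = below 50% or failed in later tests; about a fifth of its hits are not listed in these tables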;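 note: calls also rest on retests at 20 µM and on dose response follow-up; controls were probe without protein and protein plus probe with vehicle; some compounds called inactive have numbers as strong as hits; many hits fall short of the cut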
MT1-MMP act inh – blockers of MT1-MMP proenzyme processing, primary screen, HT1080 RFP-PRO-GFP cells, GFP/RFP fluorescence | hit rate 0.061% among 360,000 | GFP/RFP ratio change, % at 20 µM | GFP/RFP ratio fluorescence, overnight; percent of plate control window, DMSO zero | Matrix metalloproteinase-14 (Homo sapiens), P50281 | AID 651647, 2012;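 active = GFP/RFP ratio change of at least 30% with cell ATP level not reduced by more than half and red fluorescence within 50% of control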; note: strong numbers were not always called active
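Material – HT1080 RFP-PRO-GFP cells · Control set – DMSO wells and RFP-L50D-GFP cells · Incubation – overnight cell settling, then overnight compound exposure, 37 °C, 5% CO2 · Compound dosing – single-point 20 µM compound, 1% DMSO · Read-out – GFP/RFP fluorescence ratio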
Rce1 inh – yeast Rce1p protease inhibitors, primary screen, biochemical, fluorescence, cell-free homogeneous; calls only; CAAX prenyl protease 2 (Saccharomyces cerevisiae (strain ATCC 204508 / S288c)), Q03530; hit rate 0.27% among 290,000; yeast membranes, quenched prenylated peptide cleavage fluorescence;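 active = fall in fluorescence gain of 50% or more versus controls, with final raw signal at or below 3038400; inconclusive = same 50% fall but final raw signal above 3038400; inactive = fall in fluorescence gain under 50%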;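 note: plate controls were neutral control wells for no effect and wells lacking membranes for full effect; tested at 10 µM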
Target sequence (Q03530 whole entry, looked up): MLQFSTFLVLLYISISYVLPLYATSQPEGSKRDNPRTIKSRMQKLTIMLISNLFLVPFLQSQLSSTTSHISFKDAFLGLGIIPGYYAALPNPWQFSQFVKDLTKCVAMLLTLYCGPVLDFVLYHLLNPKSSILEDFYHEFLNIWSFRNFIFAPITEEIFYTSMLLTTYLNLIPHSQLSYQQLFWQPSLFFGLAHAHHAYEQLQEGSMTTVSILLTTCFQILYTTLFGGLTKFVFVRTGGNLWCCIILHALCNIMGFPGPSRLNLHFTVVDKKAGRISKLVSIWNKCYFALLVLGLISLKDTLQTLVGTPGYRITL
CSC inhib – cancer stem cell viability inhibitors, primary screen, luminescence | inhibition, % at 7.5 µM | cancer stem cell-like cells viability | hit rate 1.1% among 300,000;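 active = mean at 75% or more and at least half the replicates too; inconclusive = mean and replicates disagree; tested in HMLE shEcad cells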;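 note: 0% = median of negative and 100% = median of positive control wells; the first replicate is given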
MT1-MMP act inh RFP – second read-out of MT1-MMP act inh, no call of its own (marks repeat the call); RFP signal change, %; measured here: RFP expression control read;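 0 = vehicle wells; hits needed this value within 50% of zero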
* marks the source's active call; other numbers are inactive results; i = inactive; ? = inconclusive; . = no result given. An excerpt, so the mix of outcomes need not match the whole.

compound	UUG fidelity	eIF4H inh	Env fusion inh	PABP FP inh	MT1-MMP act inh	MT1-MMP act inh RFP	Rce1 inh	CSC inhib
Cc1ccc2[nH]c3c(=O)n4c(nc3c2c1)SCC4	.	-6	-6	0	8	7	i	-16
O=C(c1ccccc1CCc1ccccc1)N1CCN(c2ccccn2)CC1	7	-4	.	-6	-6	-6	i	-3
CC1CC(C)CN(C(=O)Cn2ncc3c([nH]c4ccccc43)c2=O)C1 (stereo unspecified)	-14	-14	13	17	0	1	i	6
COc1ccc(CN(CC(=O)NC2CCCCC2)C(=O)CCC(=O)Nc2nccs2)cc1	-34	-3	7	-1	0	1	i	-14
COc1ccc(CNC(=O)CCC(=O)Nc2nnc(C(C)C)s2)cc1	.	-3	-48	0	2	-3	i	-12
O=C(CN1C(=O)/C(=C/c2ccc(F)cc2)SC1=S)N1CCN(CCc2ccccn2)CC1	-11	1	-3	-11	10	10	i	6
COc1ccc(NC(=O)C2(c3ccc(NC(=O)c4ccc(OC(C)=O)cc4)cc3)CCCC2)cc1	-11	-8	27	-6	4	2	i	-6
Cc1ccc2c(C)c(C(=O)NCCN3CCCC(O)C3)oc2c1C (stereo unspecified)	-6	-4	-3	8	0	1	i	-16
CCC(=O)c1cn(CC(=O)Nc2ccc(C)cc2)c2ccccc12	1	-8	-2	11	4	1	i	-7
CC(C(=O)N1CCOCC1)N1C(=O)C2C3CC(C(Br)C3Br)C2C1=O (stereo unspecified)	.	0	-6	-6	1	2	i	-6
c1cc(CN2CCN(C3CCCCCC3)CC2)ccn1	.	12	6	7	-5	0	i	-9
CCOC(=O)Cc1n[nH]c(=O)c2ccccc12	-10	-1	-7	-4	-2	-6	i	-8

Compound profiles, as listed above. Screens in order: UUG fidelity, eIF4H inh, Env fusion inh, PABP FP inh, MT1-MMP act inh, MT1-MMP act inh RFP, Rce1 inh, CSC inhib
Entry for Cc1ccc2c(C)c(C(=O)NCCN3CCCC(O)C3)oc2c1C (stereo unspecified) : -6, -4, -3, 8, 0, 1, i, -16
Entry for CC1CC(C)CN(C(=O)Cn2ncc3c([nH]c4ccccc43)c2=O)C1 (stereo unspecified) : -14, -14, 13, 17, 0, 1, i, 6
Entry for CC(C(=O)N1CCOCC1)N1C(=O)C2C3CC(C(Br)C3Br)C2C1=O (stereo unspecified) : ., 0, -6, -6, 1, 2, i, -6
Entry for COc1ccc(CN(CC(=O)NC2CCCCC2)C(=O)CCC(=O)Nc2nccs2)cc1 : -34, -3, 7, -1, 0, 1, i, -14
Entry for CCC(=O)c1cn(CC(=O)Nc2ccc(C)cc2)c2ccccc12 : 1, -8, -2, 11, 4, 1, i, -7

More entries follow.
compound	UUG fidelity	eIF4H inh	Env fusion inh	PABP FP inh	MT1-MMP act inh	MT1-MMP act inh RFP	Rce1 inh	CSC inhib
COc1cccc(CNC(=S)Nc2ccc3c(c2)c(=O)n(C)n3C)c1	-21	.	-16	.	0	1	.	.
Cc1ccc(S(=O)(=O)c2nc(S(C)(=O)=O)sc2N2CCCCC2C)cc1 (stereo unspecified)	-5	-2	-10	7	-5	-5	i	-7
Cc1ccc(-n2c(O)c(/C=N/NC(=O)C3COc4ccccc4O3)c3ccccc3c2=O)cc1 (stereo unspecified)	-2	6	30	4	-3	2	i	.
C=C(C)COc1ccc(-c2nc(N)ncc2-c2ccc(Cl)cc2)c(O)c1	-11	2	3	0	0	-2	i	104*
O=C(CSc1c2c(nc3ccc(Cl)cc13)CCCC2)NCc1ccco1	.	-5	-148	7	-9	-2	i	-2
Cc1ccc(-c2ccc(CN3C(C(C)C)C(=O)N(Cc4cn(CCC5OCCO5)nn4)CCS3(=O)=O)cc2)c(C)c1 (stereo unspecified)	-12	.	3	.	4	-5	.	.
O=C(Nc1ccccc1)C1CCCN(S(=O)(=O)c2ccc(-n3cnnn3)cc2)C1 (stereo unspecified)	-11	-4	2	1	-1	-6	i	-5
CCN(CC(=O)Nc1ccccc1C(=O)OC)S(=O)(=O)c1ccccc1	3	4	27	12	-10	-1	i	-6
N#Cc1ccsc1NC(=O)CCN1CCN(C(c2ccccc2)c2ccccc2)CC1	-8	-4	8	0	-9	-8	i	32
NS(=O)(=O)c1ccc(CCNC(=O)CCCOc2ccccc2)cc1	.	-14	3	-12	3	2	i	.
O=C(NC1CCCc2ccccc21)c1ccc(=O)[nH]c1 (stereo unspecified)	-5	0	.	4	-3	1	i	-1
O=S(=O)(NCc1cccnc1)c1ccc(Cl)c(Cl)c1Cl	-14	-8	.	-6	1	1	i	21
CSc1nc(-c2ccccc2)nc(NC(=O)c2ccccc2)c1C(C)=O	.	44	12	-12	-4	-7	i	-11
COc1ccc(-c2nc(-c3cccs3)c(-c3cccs3)[nH]2)cc1OC	-3	10	-80	5	6	-10	i	-25
Cc1ccc(S(=O)(=O)Cc2ccc(C(=O)NCc3ccc4c(c3)OCO4)o2)cc1	-5	18	37	5	-1	-5	i	.
O=C(O)COCC(=O)NCc1csc2ccccc12	.	3	7	6	3	-3	i	-6
CCC(=O)NCCc1cc2ccc(C)cc2[nH]c1=O	-8	2	0	2	3	9	.	1
C=C(c1ccc(OC)cc1)c1ccc(OC)cc1	-22	6	17	1	-1	2	i	16
Cc1ccc(N2Cc3ccccc3C2=S)cc1	-30	-16	-96	-14	3	4	i	-1
O=S(=O)(c1ccccc1)c1nc(-c2cccc(Cl)c2)oc1N1CCOCC1	-10	-10	.	-3	-3	-5	i	1
CC1=C(C(=O)N(C)Cc2ccccc2)C2(CCC(C)CC2)OC1=O (stereo unspecified)	22	1	-10	-24	1	1	i	-10
Cc1ccc(-n2ncc3c2ncn2c(C)nnc32)cc1C	-9	-4	-69	-7	0	0	.	9
O=[N+]([O-])c1ccccc1S(=O)(=O)N1CCN(c2ccc(F)cc2)CC1	-6	1	-11	2	4	0	i	-8
CC(=O)Nc1ccc(S(=O)(=O)N2CCN(C(=O)Cc3ccccc3)CC2)cc1	.	-1	-68	-7	5	7	i	11
O=C(c1ccccc1)N1CCN(C(=S)NCc2ccc3c(c2)OCO3)CC1	-16	7	-1	7	7	9	.	-6
O=C(NC1CCCCC1)N(c1ccccc1)c1nnc(-c2cccc([N+](=O)[O-])c2)s1	-17	.	-25	.	3	1	.	.
CCOC(=O)[C@H]1[C@H]2COc3ccc(OC)cc3[C@@H]2N2C(=O)CN(Cc3ccc(C)cc3)C(=O)[C@@]12C	-7	.	-25	.	-14	0	.	-29
O=C(N=C1SCC(=O)N1c1ccccc1)c1ccco1	-2	-19	.	-6	0	4	.	-7
CN(C)CCNC(=O)/C(=C/c1cccc([N+](=O)[O-])c1)NC(=O)c1ccccc1	.	28	-14	-2	3	5	i	7
C=CCn1c(SCC(=O)Nc2cc(C)on2)nnc1C1COc2ccccc2O1 (stereo unspecified)	.	17	-1	?	-2	1	i	17
O=C(O)c1cc(-c2ccccc2)nn1CC1CC(c2cccnc2)=NO1 (stereo unspecified)	-9	.	12	.	0	3	i	13
C=CCc1cccc(/C=N/NC(=O)c2ccccc2OC)c1O	5	0	1	-2	2	-2	i	-2
COc1cccc(NC(=O)NC2(C(=O)N3CCC(O)CC3)CCCCC2)c1	-16	6	-12	7	-1	2	i	-6
CC(C)[C@H]1COCCS(=O)(=O)N1Cc1ccccc1-c1ccc(C(C)(C)C)cc1	5	.	32	.	-5	-12	.	.
COc1ccccc1NS(=O)(=O)c1ccc(O)c(C(=O)OCC(=O)N2CCc3ccccc32)c1	6	8	8	-6	2	2	i	6
Cc1ccc2[nH]c(SCC(=O)N3CCOCC3)nc2c1C	-12	-4	.	-1	-5	0	i	-9

Three entries out of the list above, sorted by the value under Env fusion inh, ascending.
Compound | UUG fidelity | Env fusion inh | MT1-MMP act inh | MT1-MMP act inh RFP | Rce1 inh
CCOC(=O)[C@H]1[C@H]2COc3ccc(OC)cc3[C@@H]2N2C(=O)CN(Cc3ccc(C)cc3)C(=O)[C@@]12C | -7 | -25 | -14 | 0 | .
COc1cccc(NC(=O)NC2(C(=O)N3CCC(O)CC3)CCCCC2)c1 | -16 | -12 | -1 | 2 | i
O=C(O)c1cc(-c2ccccc2)nn1CC1CC(c2cccnc2)=NO1 (stereo unspecified) | -9 | 12 | 0 | 3 | i

Continuation:
compound	UUG fidelity	eIF4H inh	Env fusion inh	PABP FP inh	MT1-MMP act inh	MT1-MMP act inh RFP	Rce1 inh	CSC inhib
CC(=O)COc1ccc2c(C)c(-c3ccccc3)c(=O)oc2c1	.	-6	-34	-8	3	-2	i	1
CCOC(=O)C1CCCN(C(=O)C2(c3ccc(Cl)cc3)CCCC2)CC1 (stereo unspecified)	-6	.	-134	.	-6	-4	.	.
COc1ccccc1NC(=O)C1=C(C)Nc2nc3ccccc3n2C1c1cccs1 (stereo unspecified)	-21	6	-16	3	-5	-13	i	.
CCOC(=O)C1Nc2ccc(Br)cc2C2C=CCC12 (stereo unspecified)	-17	19	-5	3	0	-1	i	13
Cc1ccc(NC(=O)COc2ccc(C3SCCS3)cc2)cc1	.	2	11	9	1	-4	i	-1
COc1ccc(/C=N/NC(=O)C(O)(c2ccccc2)c2ccccc2)cc1OC	.	-8	-3	2	2	6	i	-14
COc1ccccc1/C=C/C(=O)Nc1cccnc1Cl	6	7	-18	3	4	3	i	-14
C=CCc1c(C)nc(SCCC)[nH]c1=O	-23	4	.	5	3	5	i	-10
CCc1ccc(-c2cc(C)no2)cc1S(=O)(=O)N1CCC(C)CC1	.	26	16	-5	-4	-7	i	-15
CCC1CCCCN1CCCNC(=O)CNC(=O)c1nn(-c2ccc(OC)cc2)c(=O)c2ccccc12 (stereo unspecified)	-15	-3	-4	-1	-2	4	i	16
Cc1nc(SCC(=O)NCc2ccccc2)c2c(=O)n(C)c(=O)n(C)c2n1	-1	-13	-3	-7	0	2	i	-3
COCC1CCCN(C(=O)c2ccc3nc(Cc4cccc(Cl)c4)oc3c2)C1 (stereo unspecified)	26	-1	-20	-2	-3	-5	i	2
CC(C)(C)CN1CCNC(=O)C1CC(=O)NCCc1ccccc1C(F)(F)F (stereo unspecified)	.	4	9	13	-3	5	i	5
Clc1cccc(OCCN2CCCC2)c1	-2	1	11	-2	1	0	i	-14
CC(=O)c1cccc(N(CC(=O)NC2CCCC2)C(=O)c2csnn2)c1	3	-6	2	-16	-5	3	i	-2
COC(=O)C1N[C@@H]([C@@H](NC(=O)COc2ccccc2)C(=O)NCc2ccsc2)SC1(C)C (stereo partly specified)	-16	.	28	.	0	2	i	-9
CCOC(=O)/C(C#N)=N/Nc1c(S(=O)(=O)Cc2ccco2)csc1C(=O)OC	.	-15	-7	5	1	3	.	9
CCC(=O)N1CCc2cc(S(=O)(=O)NCCC(=O)N3CCc4ccccc4C3)ccc21	-14	13	-26	-6	0	-4	i	-9

Screening data as filed in PubChem BioAssay.
